Sa RN4220 lethal – kills Staphylococcus aureus RN4220 | 330,000 tested, 0.33% active | inhibition, % (test concentration not listed) | S. aureus RN4220 growth, OD600, 16 h;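 active = z-score of -3 or lower and OD600 up to 0.18 on both plates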;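 note: plate controls were untreated cells for no effect and reference antibiotic for full effect; stock transfer was 100 nL into about 80 µL; one replicate is shown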
BJeLR lethal – BJeLR cell viability loss; 300,000 tested, 0.17% active; AID 1554; BJeLR (HRASV12) viability, CellTiter-Glo ATP luminescence, 48 h; reference of the scale not given here; inhibition, % (test concentration not listed);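 active = replicate mean above 50%; inconclusive = above 50% but judged a plate artefact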;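 note: 50 nL library stock added to about 25 µL; numbers are from one replicate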
Sa ugtP lethal – kills S. aureus RN4220 lacking UgtP; growth inhibition, % (no concentration beside the values); S. aureus RN4220 ugtP deletion, OD600 growth, 16 h; some inactives read as strong as hits; AID 1259309; 330,000 tested, 0.54% active;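 active = z-score under -3 and OD600 up to 0.15 on both plates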;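 note: plate controls were untreated wells for no effect and antibiotic for full effect; wells of about 80 µL received 100 nL stock; the first replicate is given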
Autofluor counter – compound fluorescence in toxin protease inhibitor counterscreen; fluorescence intensity (test concentration not listed); compound autofluorescence counterscreen, microsphere flow cytometry; stronger effect = higher value; 360,000 tested, 3.1% active; AID 624483;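 active = at least 3 SD above the mean of all compounds, about 16000 in these data; inconclusive = too few beads counted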;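 note: 100 nL of 1 mM stock went into each well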
Mtb hypoxia inh – inhibitors of hypoxia-regulated fluorescent reporter in Mycobacterium tuberculosis. M. tuberculosis hypoxia-regulated fluorescent reporter, fluorescence. fluorescence inhibition, % (concentration not given with the values). 300,000 tested, 0.1% active;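 active = 35 to 45% if threefold the growth effect, above 45% if 1.5-fold the growth effect; inactive = the rest, general growth blockers included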;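 note: wells of about 50 µL received 100 nL stock; 0% = vehicle wells and 100% = reference inhibitor wells; whole bacteria with a GFP reporter of the hypoxia response; strong numbers were not always called active; many hits fall short of the cut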
PrP UTR inh – inhibition of PrP 5' UTR reporter expression; cell-based PrP 5' UTR mRNA reporter, plate reader; inhibition, % (test concentration not listed); 340,000 tested, 0.35% active; AID 488862;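 active = every replicate at 50% or more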;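 note: 0 = median of the neutral control wells; tested in H4 reporter cells; numbers are from one replicate; inactives centre near -14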
Mtb hypoxia inh growth – second read-out of Mtb hypoxia inh, no call of its own (marks repeat the call); growth inhibition, %; measured here: M. tuberculosis growth (absorbance);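 0% = vehicle and 100% = reference antibiotic; read after six days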
The depositor's hits bear a star; ? = inconclusive; · = no result given; & = joins results of further samples.

Values run as follows: Sa RN4220 lethal	BJeLR lethal	Sa ugtP lethal	Autofluor counter	Mtb hypoxia inh	Mtb hypoxia inh growth	PrP UTR inh
N#CCOc1nc(N2CCCCC2)nc(N2CCCCC2)n1
    3.0	7	8	2975	4	1	-22
COc1ccc(OC)c(-n2c(SCC(=O)Nc3cccc(S(N)(=O)=O)c3)nc3ccccc3c2=O)c1
    -1.1	-12	12	6127	-1	-11	-19
O=C(O)/C(=C\c1ccccc1OC(F)F)Sc1nnc(-c2ccc(F)cc2)o1
    -14	-7	4	3300	7	0	-7
C/C=C(\C)C(=O)Nc1cccc(C2=NOC3(C2)C[C@H](C(N)=O)N(C(=O)c2cc([N+](=O)[O-])cc([N+](=O)[O-])c2)C3)c1 (stereo not given in full)
    ·	-7	·	4020	·	·	-13
COc1cc(C2Nc3cccc4cccc(c34)N2)cc(OC)c1OC(C)=O
    ·	-11	·	2863	·	·	-15
Cc1cccn2c(=O)c3cc(C(=O)NCCN4CCOCC4)c(=N)n(CCCN4CCOCC4)c3nc12
    -3.9	4	-2	3634	-12	-10	-24
COC(=O)c1ccccc1NS(=O)(=O)c1ccc(Cl)nc1
    2.8	9	7	3872	2	3	-30
Cc1ccc(-n2c(SCC(=O)N3CCCCC3)nc(O)cc2=O)cc1
    3.0	-12	9	5585	14	2	-16
CCc1ccc(NS(=O)(=O)c2ccc3oc(=O)ccc3c2)cc1
    -1.7	-5	15	3441	4	16	-9
COc1ccccc1N1CCN(C2=Nc3cccc4cccc2c34)CC1
    6.4	13	-7	3583	3	11	-51
N#Cc1c(-c2ccccc2)cc(-c2ccccc2)nc1SCC(=O)NCC(=O)O
    0.9	-10	6	4402	17	8	-8
CCOC(=O)c1c(Cc2ccc(Cl)cc2)c[nH]c1C
    1.1	5	-14	2674	0	0	-39
COc1cc(OC)c(-c2nc3c[n+](CC(=O)c4ccccc4)ccc3n2C)cc1OC
    5.7	3	-2	10392	9	8	11
C=CC[C@@H](CC(=O)NCCO)C(=O)N[C@@H](C)COC(=O)[C@H](CC=C)CC(=O)OC(C)(C)C
    3.5	·	10	3238	5	7	-13
O=C(CN1c2cccc3cccc(c23)S1(=O)=O)Nc1ccc(S(=O)(=O)N2CCOCC2)cc1
    ·	-11	·	9601	·	·	-17

Pulled by compound from the entries so far (2):
Values run as follows: Sa RN4220 lethal	BJeLR lethal	Sa ugtP lethal	Autofluor counter	Mtb hypoxia inh	Mtb hypoxia inh growth	PrP UTR inh
C/C=C(\C)C(=O)Nc1cccc(C2=NOC3(C2)C[C@H](C(N)=O)N(C(=O)c2cc([N+](=O)[O-])cc([N+](=O)[O-])c2)C3)c1 (stereo not given in full)
    ·	-7	·	4020	·	·	-13
COc1cc(OC)c(-c2nc3c[n+](CC(=O)c4ccccc4)ccc3n2C)cc1OC
    5.7	3	-2	10392	9	8	11

(further entries)
Values run as follows: Sa RN4220 lethal	BJeLR lethal	Sa ugtP lethal	Autofluor counter	Mtb hypoxia inh	Mtb hypoxia inh growth	PrP UTR inh
O=C(c1ccccc1)c1ccc(C(=O)N2CCN(c3ccccc3)CC2)cc1
    2.7	1	1	5231	5	1	-15
CC(=O)NC(Cc1ccc(O)cc1)CN1C(N)=NCC1CC(C)C (stereo not given)
    5.4	·	-6	·	3	2	·
COc1ccc(Cc2nnc(SCC(=O)N(c3ccccc3)C(C)C)n(N)c2=O)cc1
    -1.9	9	1	?	2	5	-28
CCOC(CNC(=O)c1ccc2c(c1)nc(C)n2-c1cccc(F)c1)OCC
    -1.7	-22	9	23358*	-6	5	-44
Cc1nc2oc3ccccc3c(=O)c2c(=O)n1Cc1ccccc1
    2.5	9	-4	9426	13	2	-12
CC(=O)Nc1ccc(S(=O)(=O)N(C)CC(=O)OCC(=O)NC(C)C23CC4CC(CC(C4)C2)C3)cc1 (stereo not given)
    13	-2	0	2160	7	-5	-19
CNC(=O)c1ccc(-n2cccn2)nc1
    3.6	-6	-5	3182	5	7	-11
CCN(CC)S(=O)(=O)c1ccc(N2CCOCC2)c(NC(=O)COc2ccc(OC)cc2)c1
    4.2	·	1	8683	5	-2	-19
Oc1ccc(CC2CNC(=S)N2CCc2cc(C(F)(F)F)cc(C(F)(F)F)c2)cc1 (stereo not given)
    -0.6&-4.2	·	22&11	·	19&12	8&2	·
CCOC(=O)/C=C(C)\C=C\c1c[nH]c2ccccc12
    9.0	-1	-1	9543	10	10	-24
COc1ccc(CCNC(=O)CN(c2ccccc2OC)S(=O)(=O)c2ccc(C)cc2)cc1
    -2.1	-3	-1	?	0	4	-3
COc1ccc2c(CC(=O)NC(Cc3ccc(Cl)cc3)C(=O)O)cc(=O)oc2c1C (stereo not given)
    -0.1	0	-1	4025	9	1	-13
CC(C)(C)c1nc(N2CCN(C(=O)c3ccco3)CC2)c2nnn(Cc3ccccc3)c2n1
    -9.7	0	68	8630	1	10	-8
C/C(=N/NC(=O)c1cc(C(C)C)[nH]n1)c1cccs1
    ·	-6	·	3856	·	·	-34
CCOC(=O)CCCNC(=O)c1cncc(O)c1
    12	9	5	11266	12	2	-25
NC(=O)c1ccc(NC(=O)CNC(c2ccccc2)c2ccccc2)cc1
    -3.0	-3	27	3088	7	0	4
CSc1nc2ccccc2n1CC(=O)Nc1ccc(C)c(C)c1
    4.5	0	14	2530	3	4	0
O=c1c(Cl)c(N2CCN(c3ccccc3)CC2)cnn1C12CC3CC(CC(C3)C1)C2
    1.1	-11	6	2152	-13	7	-19
C#CCOCCOCCOCCNc1nc(N2CCN(C(=O)[C@H]([C@@H](C)CC)n3cc([C@@H](N)Cc4ccc(O)cc4)nn3)CC2)nc(N2CCN(C(=O)[C@H]([C@@H](C)CC)n3cc([C@@H](N)Cc4ccc(O)cc4)nn3)CC2)n1
    ·	-4	·	4226	·	·	-23
Cc1nc2ccc(NS(=O)(=O)c3ccc(F)c(C)c3)cc2[nH]1
    3.4	5	8	3535	4	3	-10
Nc1c(Cl)cc(-c2csc(N3CCCC3c3nc4cc(Cl)c(Cl)cc4n3CCCO)n2)cc1Cl (stereo not given)
    ·	0	·	3659	·	·	-8
Cc1cccc(C(=O)NC2CCN(S(=O)(=O)c3ccccc3)CC2)c1
    5.4	-3	4	3440	2	3	-19
COc1cccc(CNc2ccc(S(N)(=O)=O)cc2)c1OCc1ccccc1F
    15	8	-4	2212	3	1	-10
Cc1nc(SCC(=O)NCc2ccc3c(c2)OCO3)c(C#N)c2c1CCCC2
    3.6	1	1	4933	·	·	-13
c1cc(C2CCCCC2)ccc1Oc1nc(N2CCOCC2)nc(N2CCOCC2)n1
    -2.6	6	15	3574	·	·	-13
OC(c1cccs1)c1nccc2ccccc12 (stereo not given)
    0.6	-6	-9	2784	·	·	-2
O=[N+]([O-])c1ccc(F)cc1OCc1cccc(S(=O)(=O)N2CCOCC2)c1
    1.5	6	3	·	0	1	-11
CC(C)CCNC(=O)COC(=O)c1ccc(Br)o1
    1.0	-1	0	?	2	5	-2
Cc1cc(NC(=O)Cn2c(=O)c3c(ncn3CCC(C)C)n(Cc3ccccc3)c2=O)no1
    3.5	11	0	9726	14	2	-20
COc1ccc(NC(=O)COC(=O)C2CC3C=CC2C3)cc1 (stereo not given)
    5.6	2	13	4948	2	2	-23
O=C(N/N=C/C(Br)=C/c1ccccc1)C1CC1
    ·	-9	·	4627	·	·	-49
CC1CC(C)CN(C(=O)C(NS(=O)(=O)c2ccc3c(c2)oc(=O)n3C)C(C)C)C1 (stereo not given)
    0.2	-5	5	5401	·	·	-16
CCN(CC(=O)N1CCCC1)S(=O)(=O)c1ccc(OC)cc1
    -1.0	-3	5	3422	4	11	1
Cc1cc(C)cc(C(=O)OCC(=O)Nc2ncccn2)c1
    2.9	·	2	5950	2	-1	-11
Cn1cnnc1Sc1ccc(C(=O)OCC(=O)Nc2ccccc2)cc1[N+](=O)[O-]
    -0.2	-12	-2	2587	-4	-1	-30
Cc1ccc(S(=O)(=O)N2CC=C(C(=O)NCc3ccccc3)CC2)cc1
    -1.2	-1	7	5136	·	·	-11
O=C(CSc1nc2ccccc2c(=O)n1-c1ccc(F)c(Cl)c1)Nc1cccc(S(=O)(=O)N2CCOCC2)c1
    2.9	9	4	2372	5	-3	-9
Cn1ncc(C#N)c1/N=C/N1CCCC1
    ·	4	·	10337	·	·	-2
COc1ccccc1CN(CC(=O)NCC1CCCO1)C(=O)CNS(=O)(=O)c1ccc(C)cc1 (stereo not given)
    -0.9	6	-5	2472	·	·	-19
Cc1ccccc1N/N=C/c1ccc(N2CCOCC2)cc1
    ·	4	·	12504	·	·	-50
CSc1nc(O)c(N=Nc2ccc(F)cc2F)c(=O)[nH]1
    20	-16	-5	3683	-1	0	-27
O=C(NNC(=S)Nc1ccc(Br)cc1)c1cccnc1
    3.0	-18	1	6090	2	11	-13
COCc1[nH]nc2c1C(c1sccc1C)C(C#N)=C(N)O2 (stereo not given)
    3.7	5	-1	4559	10	8	-15
Cc1ccc(-c2cccc(NC(=O)C3C4C=CC(C4)C3C(=O)O)c2)o1 (stereo not given)
    9.0&6.1	-10	5&-5	10477	9&6	9&9	-37
O=C1NC(=O)/C(=C/c2cc3c(cc2Br)OCO3)S1
    32	-8	21	3288	0	-1	-16
COc1cc2[nH]c3c(OC)ncnc3c2cc1OC
    2.0	2	5	3427	-2	1	-11
CC(C)Oc1ccccc1C=NNc1ccccc1[N+](=O)[O-]
    -12	·	-20	·	6	2	·
Cc1cccc(CCNS(=O)(=O)c2ccc(S(=O)(=O)NC3CCCC3)cc2)c1
    2.6	-2	-4	23678*	5	-3	3
Cc1ccc2nc(SCC(=O)c3c[nH]c4ccccc34)[nH]c2c1
    -4.9	-2	-12	5287	3	5	-10
Cn1ncc(Cl)c1C(=O)Nc1cc(C(F)(F)F)ccc1F
    3.9	-4	4	5632	2	7	-9
O=C(Cc1ccc(S(=O)(=O)N2CCOCC2)s1)N1CCN(S(=O)(=O)c2ccc(Cl)cc2)CC1
    7.6	·	9	9073	5	2	-21
CC(C)CC(=O)Nc1cccc(-c2nc3ccccc3[nH]2)c1
    8.1	11	4	4077	10	5	-15
Cc1ccc(NC(=O)C(=O)NN)cc1
    2.9	12	6	3509	1	2	-5
COc1cc(C(=O)n2cnc3ccccc32)c([N+](=O)[O-])cc1OC
    -0.2	-7	3	3917	5	20	-18
CCCCOc1ccc(C(=O)NC)cc1
    -2.6	2	-7	2541	0	4	-25
CC(=NNC(=O)c1ccc(Cl)cc1)c1ccc(N2CCOCC2)cc1
    5.3	·	6	·	-10	0	·
COc1ccc2c(c1)CC1(CN2C)C(=O)NC(=O)N(CCc2ccccc2)C1=O (stereo not given)
    15	-2	-6	5237	-3	10	-31
CN1CCN(C2CCCCC2NS(=O)(=O)c2ccccc2)CC1 (stereo not given)
    3.2	10	11	4456	8	-6	-1
CCOC(=O)C1CCN(S(=O)(=O)c2ccc3c(c2)CC(C)N3C(=O)C2CCC2)CC1 (stereo not given)
    3.7	4	11	4181	12	3	11
COc1ccc(C(C(=O)NC(C)C)N(C(=O)CCC(=O)Nc2nccs2)c2ccccc2F)cc1 (stereo not given)
    1.7	7	-8	3457	1	2	-10

More entries
Values run as follows: Sa RN4220 lethal	BJeLR lethal	Sa ugtP lethal	Autofluor counter	Mtb hypoxia inh	Mtb hypoxia inh growth	PrP UTR inh
Cc1nc2nc(CSc3nnc(C)s3)cc(=O)n2[nH]1
    3.0&4.3	-17	4&12	3553&3324	6&12	3&9	-36&-11
COc1ccc(NC(=O)C/C(C)=N/NC(=O)COc2ccc(OC)cc2)cc1
    ·	3	·	4295	·	·	-25
O=C(N=C1SC2CS(=O)(=O)CC2N1Cc1ccccc1)C1CCCCC1 (stereo not given)
    4.9	4	8	6048	5	6	-19
CC(C)(C)c1ccc(C2CC2C(=O)N/N=C\c2ccc[nH]2)cc1 (stereo not given)
    ·	-2	·	4574	·	·	-2
CCc1ccccc1N1C(=O)C2CC=CCC2C1=O (stereo not given)
    4.6	3	5	2986	6	12	-34
COCCNS(=O)(=O)c1ccc2c(c1)C(=O)c1cc(S(=O)(=O)NCCOC)ccc1-2
    2.7	-2	1	16158*	7	9	-17
C/C(N)=C(/C#N)C(=O)COC(=O)CNS(=O)(=O)c1ccc(C)cc1
    -3.5	1	7	3924	14	2	-19
COc1ccc(CC(=O)NNS(=O)(=O)c2cccc([N+](=O)[O-])c2)cc1OC
    1.5	-10	5	4820	11	10	-13

High-throughput results as filed in PubChem BioAssay.
